Screening results from PubChem BioAssay.
S aureus helic: blocks Staphylococcus aureus DNA helicase; inhibition, %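 (tested at about 80 µM)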; purified S. aureus helicase, fluorescence unwinding assay; about half of the hits fall short of the stated cut; 120,000 compounds, 0.05% hits; AID 485395;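 active means both duplicates at 50% or more, or one of them with a favoured structure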;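 further: 0% = mean of negative control wells and 100% = mean of positive control wells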
MgrA DNA FP: modulators of Staphylococcus aureus MgrA DNA binding; fluorescence polarization; inhibition, %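 (about 10 µg/mL by stock and volumes)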; 84,000 compounds, 0.13% hits; AID 602314;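 active means above 50% in either of two replicates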;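 further: 0% = protein plus DNA without compound and 100% = DNA alone without protein; higher means less MgrA bound to DNA so lower polarization; one replicate is shown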
The depositor's hits bear a star; x = not tested or not shown.

S aureus helic	MgrA DNA FP	compound
-7.0	-4.1	CC(=O)Nn1cc(C(=O)O)c2ccccc2c1=O
-13.0	-0.3	COc1cccc(C2C(C#N)=C(N)Oc3[nH]c(=O)[nH]c(=O)c32)c1 (stereo not given)
-13.0	x	O=C1NC2(CCCC2)C(=O)N1CN1CCC(Cc2ccccc2)CC1
2.0	0.5	C=CCn1c(SCc2nc(N)nc(N3CCCCC3)n2)nnc1-c1cccnc1
-13.0	x	CCOc1ccc(-n2nnc(C(=O)NCc3cc(OC)ccc3OC)c2C)cc1
-25.0	x	O=C1NC(=O)C2(CCSc3ccc(F)cc32)N1 (stereo not given)
x	0.6	Cc1ccc(NS(C)(=O)=O)cc1[N+](=O)[O-]
-14.0	x	CC(NC(=O)C1CCN(S(=O)(=O)c2ccccc2)CC1)c1ccccc1 (stereo not given)

Six consecutive records already listed:
S aureus helic	MgrA DNA FP	compound
-7.0	-4.1	CC(=O)Nn1cc(C(=O)O)c2ccccc2c1=O
-13.0	-0.3	COc1cccc(C2C(C#N)=C(N)Oc3[nH]c(=O)[nH]c(=O)c32)c1 (stereo not given)
-13.0	x	O=C1NC2(CCCC2)C(=O)N1CN1CCC(Cc2ccccc2)CC1
2.0	0.5	C=CCn1c(SCc2nc(N)nc(N3CCCCC3)n2)nnc1-c1cccnc1
-13.0	x	CCOc1ccc(-n2nnc(C(=O)NCc3cc(OC)ccc3OC)c2C)cc1
-25.0	x	O=C1NC(=O)C2(CCSc3ccc(F)cc32)N1 (stereo not given)

Carrying on:
S aureus helic	MgrA DNA FP	compound
10.0	x	COc1cccc(C(=O)OCC(=O)N2CCCc3ccccc32)c1
x	3.1	CCOC(=O)O[C@]1(C(=O)COC(=O)CC)CC[C@H]2[C@@H]3CCC4=CC(=O)C=C[C@]4(C)[C@H]3[C@@H](O)C[C@@]21C
x	-1.3	COc1ccc(-c2cc(C(F)(F)F)n3nc(C(=O)NCCN4CCOCC4)c(Cl)c3n2)cc1OC
x	-0.9	CN(C)c1[nH]ncc1-c1ccccc1
-17.0	x	O=C1/C(=C/c2ccc3c(c2)OCO3)CS(=O)(=O)c2ccccc21
7.0	-3.3	CCOC(=O)c1c(C)nsc1NC(=O)c1csc(C)c1C
-4.0	x	O=C1CCN(c2nc(-c3ccccc3)nc3ccccc23)CC1
x	0.6	CCN(CC)C(=O)Oc1cc(C(F)(F)F)nc(-c2ccc(Cl)cc2)n1

Following part.
S aureus helic	MgrA DNA FP	compound
x	1.0	CCOC(=O)c1ccc(N2CC3CCCCN3C2c2ccccc2)cc1 (stereo not given)
-7.0	x	COc1ccc(C(=O)NCCCc2nc3ccccc3n2C)cc1OC
5.0	-0.1	CC(C)=CC(=O)Nc1nc2ccc(S(C)(=O)=O)cc2s1
-13.0	x	CCn1c(NN)nc2ccccc21
x	-2.5	Cc1cc(=O)oc2cc(NC(=O)CC(CC(=O)O)c3ccccc3)ccc12 (stereo not given)
2.0	x	Cc1ccc(-c2csc(NC(=O)c3nc4ccccc4s3)n2)o1
13.0	-0.1	Cc1ccc(Sc2c(O)c3ccccc3oc2=O)cc1
-4.0	x	Nc1ccccc1S(=O)(=O)Nc1ccccc1

Later entries
S aureus helic	MgrA DNA FP	compound
-3.0	3.2	CC1(C)Cc2c(ccc3ccccc23)CN1
4.0	0.1	CN1CCC(OC(=O)c2ccco2)CC1
-2.0	8.8	CC1=C(C(=O)OCc2ccccc2)C(c2ccc[nH]2)C(C#N)=C(S)S1 (stereo not given)
4.0	1.4	COc1ccccc1N1CCN(S(=O)(=O)c2ccc3c4c(cccc24)C(=O)N3)CC1
-2.0	x	Cc1ccc(N=C2NC(=O)/C(=C\c3cn(C)c4ccccc34)S2)c(C)c1
10.0	x	O=S(=O)(c1ccc2oc(=S)n(CN3CCOCC3)c2c1)N1CCOCC1
-15.0	x	N#CCN(C(=O)CSc1nccn1-c1cccc(Cl)c1)c1ccccc1
-8.0	x	O=C(CN1C(=O)/C(=C/c2ccccc2)SC1=S)Nc1ccccc1

Continued.
S aureus helic	MgrA DNA FP	compound
-1.0	1.1	CCCNC(=O)N(C)c1ncnnc1NC
4.0	-0.6	CCN1CCN(CCCNC(=O)c2ccc3nc(/C=C(\O)c4ccc(OC)cc4)c(=O)[nH]c3c2)CC1
-19.0	x	CCOC(=O)c1c(S(=O)(=O)NC2CCN(C(=O)OCC)CC2)c(C)n(C)c1C
-28.0	x	CC1CC2(CCCCC2)Nc2ccccc21 (stereo not given)
-13.0	1.4	COc1cc2c(cc1OC)C(c1ccccc1)N(C(=O)c1oc3ccccc3c1C)CC2 (stereo not given)
11.0	x	CN(CCCc1nc2ccccc2[nH]1)S(=O)(=O)c1ccc(Cl)cc1
5.0	3.0	O=C(O)c1ccc2c(c1)C(=O)N(NC(=O)c1ccc(O)cc1)C2=O
-8.0	3.5	Cc1ccc(OCCOCCOc2ccccc2/C=N\n2cnnc2)cc1

Additional entries
S aureus helic	MgrA DNA FP	compound
1.0	4.3	CCn1c(SC)nnc1C1CCN(C(=O)NCc2ccccc2)CC1
0.0	x	O=C(c1cccs1)C(O)NS(=O)(=O)c1ccccc1 (stereo not given)
9.0	x	O=C(O)CCC(=O)N1CCCC1
5.0	-0.4	c1ccc(-c2cn3ccsc3n2)cc1
7.0	x	CC(C)OC(=O)/C(C#N)=C/c1cn(C)c2ccccc12
-26.0	-0.9	N#CCC(=O)NCCN1CCOCC1
-4.0	2.9	COc1ccccc1NC(=O)Cc1ccccc1
-117.0	x	CCOc1cc(/C=C2\NC(=S)N(C3CCCCC3)C2=O)ccc1O

Later entries
S aureus helic	MgrA DNA FP	compound
-11.0	x	COc1ccc(S(=O)(=O)Nc2ccccn2)cc1OC
-7.0	x	CC(C)NC(=O)NC(c1ccccc1)c1ccccc1
x	-2.4	O=C(Nc1ccc2c(c1)OCCO2)c1cncc(-c2cccs2)c1
3.0	x	COc1ccccc1NS(=O)(=O)c1cccc(C(=O)NN=C2CCCC2)c1
x	-0.5	CC1(C)Cc2cccc(C(=O)Nc3cccc4c3CCCC4)c2O1
-18.0	x	Cc1cccc(C(=O)NCCCn2ccnc2)c1C
13.0	3.2	COc1ccc(Cl)cc1C(=O)Nc1ccc2nc3n(c(=O)c2c1)CCCC3
x	-0.7	O=C(O/N=C(/c1ccc(F)cc1)C1CC1)c1sc2sccc2c1Cl

Profiles as entered above:
COc1ccccc1NS(=O)(=O)c1cccc(C(=O)NN=C2CCCC2)c1 in the list: S aureus helic = 3.0; MgrA DNA FP = x
CC(NC(=O)C1CCN(S(=O)(=O)c2ccccc2)CC1)c1ccccc1 (stereo not given) in the list: S aureus helic = -14.0; MgrA DNA FP = x

(more compounds)
S aureus helic	MgrA DNA FP	compound
-5.0	-2.3	CCOC(=O)CN1C(=O)C(C)(C)Oc2ccc(C(=O)NC(C)C)cc21
-37.0	x	C=CCn1c2ccccc2c2nnc(SCC(=O)Nc3nnc(C(C)C)s3)nc21
-6.0	x	COC(=O)c1sccc1S(=O)(=O)N1c2ccccc2NC(=O)CC1C (stereo not given)
x	1.9	Cc1ccc(/C(=N\N(C)C)C(=O)C(F)(F)F)cc1
11.0	x	CCS(=O)(=O)c1ccc(O)c(NC(=O)COc2ccccc2)c1
8.0	-1.7	Cc1cc(C)n(CCc2nc(-c3cccs3)cs2)n1
-5.0	x	CN(Cc1ccccc1)Cn1c(CO)nc2ccccc21
x	-0.7	CCOC(=O)C1=C(C)N=c2s/c(=C\c3c[nH]c4ccccc34)c(=O)n2C1c1ccc(OC)cc1OC (stereo not given)

(cont.)
S aureus helic	MgrA DNA FP	compound
-23.0	x	Cc1cc2c3cccn3ccn2c1
-5.0	x	O=c1[nH]c(SC2Cc3ccccc3C2O)nc2c1cnn2-c1ccccc1 (stereo not given)
x	-0.4	O=C(/C=C/c1cccs1)Nc1cccc(Cl)c1Cl
-10.0	x	O=C(COc1cccc(-n2cnnn2)c1)N1CCc2ccccc2C1
16.0	x	CCOC(=O)C1CCN(C(=O)COC(=O)Cc2ccsc2)CC1
0.0	8.8	CCCCN(C(=O)c1cc2c(s1)-c1ccccc1OC2)C1CCN(C(C)=O)CC1
8.0	x	CC(=O)Nc1ccc(S(=O)(=O)N(C)CC(=O)OCc2cc(=O)oc3cc(O)ccc23)cc1
-52.0	x	Cc1c(C#N)c(N)n(C2CCCCC2)c1C

Other results follow:
S aureus helic	MgrA DNA FP	compound
15.0	x	COc1cccc(CNC(=O)CCC2=NS(=O)(=O)c3ccc(C)cc3N2)c1
5.0	x	Cc1ccc(CNC(=O)c2coc(=O)c3ccccc23)o1
-3.0	x	C=CCSc1nnc2n(-c3ccccc3)c(=O)c3c4c(sc3n12)CCC4
x	1.3	CSC(=NS(=O)(=O)c1cc(Cl)sc1Cl)SC
5.0	x	COc1cc(/C=N/OCC(=O)NC2CCCCC2)ccc1OC(F)F
-8.0	x	CCOC(=O)c1cc(CC)sc1Nc1nc2ccccc2nc1N1CCOCC1
16.0	x	O=C(NCc1ccccc1)c1cccc(N2CCCC2=O)c1
-5.0	x	c1ccc(CSc2nnc3sc4ccccc4n23)cc1

Next section
S aureus helic	MgrA DNA FP	compound
3.0	0.9	c1ccc2c(c1)OC1c3ccccc3OC3c4ccccc4OC2N31 (stereo not given)
-8.0	x	O=C(OCCCCN1C(=O)c2ccccc2C1=O)C1=NN(c2ccccc2)C(=O)CC1
-21.0	0.7	CCc1cc2c(=O)c(-n3cnc4ccccc43)coc2cc1O
8.0	x	O=S(=O)(c1ccc(Cl)cc1)N1CCn2c1nc1ccccc12
13.0	x	CC(=O)Nc1sc(C)c(C)c1C(=O)OCn1nnc2ccccc2c1=O
4.0	4.5	NNc1nc(NN)c2c3c(sc2n1)CCCCC3
21.0	x	COc1ccc2c(c1)CCc1c-2nc2ccccc2c1N1CCOCC1
-8.0	x	CCn1c(CNC(=O)c2ccc(OC)cc2)nnc1SC(C)C

The listing continues.
S aureus helic	MgrA DNA FP	compound
x	-1.6	Cc1csc2sc(COC(=O)Nc3ccccc3)c(C)c12
x	-1.2	Cc1cc(NC(=O)CSc2nc3ccccc3[nH]2)n(-c2ccccc2)n1
1.0	x	FC(F)(F)c1ccccc1NNC(=S)NCC1CCCO1 (stereo not given)
3.0	-2.5	N#Cc1cccc(NC(=O)Nc2cccn(Cc3ccccc3)c2=O)c1
12.0	-5.2	Cc1cc(S(N)(=O)=O)c2ncccc2c1
-2.0	-0.8	O=C(Nc1ccccc1)c1cc2sccc2n1Cc1ccccc1
5.0	7.8	CC(C)=CC1C(C(=O)NCCOc2ccccc2)C1(C)C (stereo not given)
-12.0	x	CCCn1cc(SCC(=O)NC2CCCCC2)c2ccccc21

More entries follow:
S aureus helic	MgrA DNA FP	compound
-1.0	x	CCOc1cc(C(=O)O)cc(Cl)c1O
-5.0	x	Cc1noc(C)c1CC(=O)O
-29.0	x	CN(C)c1ccc(/C=C(\C#N)C(N)=O)cc1
8.0	-0.8	N#Cc1c(N)nc2c(c1-c1ccncc1)CCCC2
x	-3.2	c1ccc(CN2CCN(c3cccc4[nH]ccc34)CC2)cc1
x	-1.6	N#C/C(NCc1cccs1)=C(\C#N)NCc1c(F)cccc1Cl
-12.0	x	COc1ccccc1C(=O)/C=C1\NC(=O)CS1
x	-0.2	N#CCCSc1nc2ccccc2s1

Next structures
S aureus helic	MgrA DNA FP	compound
12.0	x	CCCC1c2cccn2CCN1C(=O)Nc1ccccc1 (stereo not given)
8.0	-2.7	O=C1CCC2=C(CCCC2=O)N1
-2.0	x	CN(CC1COc2ccccc2O1)S(=O)(=O)c1ccc2c(c1)CCCC(=O)N2 (stereo not given)
7.0	5.2	CCOC(=O)CC1C(=O)NCCN1C(=O)Nc1ccccc1 (stereo not given)
x	0.6	CSc1cccc(NC(=O)CC2SC(=Nc3ccc(F)c(F)c3)NC2=O)c1 (stereo not given)
4.0	x	O=c1cc(NCC2CCCO2)[nH]c(=O)n1-c1ccc(Cl)cc1 (stereo not given)
x	-2.5	O=S(=O)(c1ccc2ccccc2c1)N1CC=C(c2ccccc2)CC1
7.0	-0.6	Cn1c(SCc2ccccc2)nnc1C1CCCN1C(=O)Nc1ccccc1 (stereo not given)

Next part.
S aureus helic	MgrA DNA FP	compound
4.0	-2.6	C#CCN1C(=O)C(O)(C2CCc3ccccc3C2=O)c2ccccc21 (stereo not given)
9.0	0.3	Cc1cc2c(c(=S)[nH]1)C(=O)O/C2=C/c1ccc(Cl)c(Cl)c1
-2.0	0.2	CCCCc1cc(=O)oc2c3c(c(Cl)cc12)OCN(Cc1ccc(OC)c(OC)c1)C3
-5.0	x	Cc1ccccc1CSCC(=O)c1ccc[nH]1
9.0	x	O=C(NO)c1cccc(C(F)(F)F)c1
7.0	x	CCOC(=O)C1CCCN(S(=O)(=O)c2cccc3nsnc23)C1 (stereo not given)
9.0	x	Cc1ccc(N2C(=O)C3N=NN(CC(=O)NCc4ccccc4Cl)C3C2=O)cc1C (stereo not given)
x	-1.8	NC(=O)CC12CC3CC(CC(C3)C1)C2

The list goes on:
S aureus helic	MgrA DNA FP	compound
-15.0	x	COc1ccc(OCC(O)CNC(C)C)c(C(C)(C)C)c1 (stereo not given)
8.0	1.2	O=C1CCCN2C(=N1)SC(=S)N2CN(Cc1ccccc1)Cc1ccccc1
-16.0	x	O=C(OCCOc1ccccc1)c1cccc(OC(F)F)c1
12.0	-3.9	Cc1ccc(Cn2c(N(C)C)nc3c2c(=O)[nH]c(=O)n3C)cc1
15.0	x	Cn1nc(C(=O)N2CCCSC2=Nc2ccccc2)c2ccccc2c1=O
-2.0	x	O=C(OCc1ccccc1)c1cccnc1
2.0	x	CC1c2cccn2CCN1C(=O)NC1CCCCC1 (stereo not given)
-19.0	x	Fc1ccccc1-n1ncc2c1ncn1nc(-c3ccccc3)nc21

New compounds follow:
S aureus helic	MgrA DNA FP	compound
12.0	-1.6	O=C(O)CSc1nc2ccccc2c(=O)[nH]1
5.0	-0.2	Cc1ccc(N2CC(C(=O)N(Cc3ccccc3)c3ccccn3)CC2=O)cc1 (stereo not given)
-8.0	x	COc1ccc(F)cc1CSc1nnc2nc(C)cc(C)n12
x	-1.7	CSC1=NCCCN1C(=O)c1nn(-c2ccccc2)nc1C

Not all compounds are listed; the hit share may differ from the screen's.
